Screening data deposited in PubChem by several laboratories.
RN4220 kill = S. aureus RN4220 growth inhibition. inhibition, % (no concentration beside the values). OD600, 16 h. 0.33% of 330,000 active. AID 1259311;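 active = z-score of -3 or lower and OD600 up to 0.18 on both plates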;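 note: plate controls were untreated cells for no effect and reference antibiotic for full effect; stock transfer was 100 nL into about 80 µL; one replicate is shown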
Sa ugtP lethal = compounds lethal to S. aureus RN4220 ugtP deletion mutant | OD600 growth, 16 h; some inactives read as strong as hits | growth inhibition, % (test concentration not listed) | 0.54% of 330,000 active;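 active = z-score under -3 and OD600 up to 0.15 on both plates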;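 note: plate controls were untreated wells for no effect and antibiotic for full effect; wells of about 80 µL received 100 nL stock; the first replicate is given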
Autofluor counter = flagged as autofluorescent in microsphere protease counterscreen; compound autofluorescence counterscreen, microsphere flow cytometry; hits give high values; fluorescence intensity (no concentration beside the values); 3.1% of 360,000 active;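 active = at least 3 SD above the mean of all compounds, about 16000 in these data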;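 note: 100 nL of 1 mM stock went into each well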
Mtb hypoxia rep = Mtb hypoxia fluorescent reporter inhibition; M. tuberculosis hypoxia-regulated fluorescent reporter, fluorescence; fluorescence inhibition, % (test concentration not listed); 0.1% of 300,000 active; AID 1159583;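 active = 35 to 45% if threefold the growth effect, above 45% if 1.5-fold the growth effect; inactive = the rest, general growth blockers included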;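 note: wells of about 50 µL received 100 nL stock; 0% = vehicle wells and 100% = reference inhibitor wells; whole bacteria with a GFP reporter of the hypoxia response; strong numbers were not always called active; many hits fall short of the cut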
BJeLR viability = kills HRASV12-expressing BJeLR cells. AID 1554. BJeLR (HRASV12) viability, CellTiter-Glo ATP luminescence, 48 h; reference of the scale not given here. 0.17% of 300,000 active. inhibition, % (concentration not given with the values);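 active = replicate mean above 50%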;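 note: 50 nL library stock added to about 25 µL; numbers are from one replicate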
PrP UTR inh = suppresses PrP 5' UTR mRNA reporter expression. cell-based PrP 5' UTR mRNA reporter, plate reader. inhibition, % (no concentration beside the values). 0.35% of 340,000 active;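 active = every replicate at 50% or more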;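 note: 0 = median of the neutral control wells; tested in H4 reporter cells; numbers are from one replicate; inactives centre near -14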
Mtb hypoxia rep growth = second read-out of Mtb hypoxia rep, no call of its own (marks repeat the call); growth inhibition, %; measured here: M. tuberculosis growth (absorbance);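 0% = vehicle and 100% = reference antibiotic; read after six days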
Starred values were filed as active, the others as inactive; x = not tested or not shown.

SMILES	RN4220 kill	Sa ugtP lethal	Autofluor counter	Mtb hypoxia rep	Mtb hypoxia rep growth	BJeLR viability	PrP UTR inh
CN(Cc1ccccc1)C(=O)COC(=O)c1ccccc1NS(=O)(=O)c1cccc(N)c1	3.3	-3.0	2576	4.4	4.8	-3.1	-18.9
CC1=Nc2cc(Cl)ccc2Oc2ccccc21	5.2	0.0	4419	-10.4	12.3	-4.2	-21.8
Cc1cc(C(=O)OCC(=O)Nc2ccc(F)cc2[N+](=O)[O-])c2ccccc2n1	1.4	5.6	2354	11.8	11.8	11.7	6.3
COc1ccc(S(=O)(=O)N2CCCOC2CNC(=O)C(=O)NCCc2ccco2)cc1OC (stereo unspecified)	2.7	3.0	5630	7.1	5.4	5.8	-20.9
Cc1ccc(C=c2sc3nnc(-c4ccccc4Cl)n3c2=O)o1	-0.7	-12.6	x	-7.7	-0.5	x	x
COc1ccc(C(=O)Nc2ncc(C)s2)cc1S(=O)(=O)N1CCOCC1	1.6	2.3	3780	6.6	1.4	x	-17.8
COc1ccc2c3c([nH]c2c1)C1(NCC3)C(=O)Nc2ccccc21 (stereo unspecified)	6.7	10.3	4494	2.1	-0.3	1.7	-17.3
Cc1ccc(C(=O)N2CCN(Cc3ccc4c(c3)OCO4)CC2)cc1S(=O)(=O)N1CCOCC1	0.5	1.7	x	3.7	-6.9	-2.2	-11.5
COc1cc(/C=N/O)cc(Br)c1OCC(=O)NCc1ccccc1	x	x	2819	x	x	6.0	-22.7
COc1cccc(CNc2ncc(Br)cc2Br)c1O	-1.8	8.2	3394	10.3	1.1	4.5	-65.2

A stretch of the results above:
SMILES	RN4220 kill	Sa ugtP lethal	Autofluor counter	Mtb hypoxia rep	Mtb hypoxia rep growth	BJeLR viability	PrP UTR inh
Cc1ccc(C=c2sc3nnc(-c4ccccc4Cl)n3c2=O)o1	-0.7	-12.6	x	-7.7	-0.5	x	x
COc1ccc(C(=O)Nc2ncc(C)s2)cc1S(=O)(=O)N1CCOCC1	1.6	2.3	3780	6.6	1.4	x	-17.8
COc1ccc2c3c([nH]c2c1)C1(NCC3)C(=O)Nc2ccccc21 (stereo unspecified)	6.7	10.3	4494	2.1	-0.3	1.7	-17.3

New compounds follow:
SMILES	RN4220 kill	Sa ugtP lethal	Autofluor counter	Mtb hypoxia rep	Mtb hypoxia rep growth	BJeLR viability	PrP UTR inh
CCOc1cccc(C=NNc2ccc(S(=O)(=O)N(CC)CC)cn2)c1O	19.8	100.1*	x	1.3	-2.2	x	x
CCOC(=O)CCC(=O)Nc1ccc(S(=O)(=O)Nc2cc(OC)nc(OC)n2)cc1	4.8	7.7	3987	19.1	7.0	-7.4	-22.0
CCCCn1c(NC(=O)c2ccc(Br)o2)c(S(=O)(=O)c2ccccc2)c2nc3ccccc3nc21	16.5	10.3	14924	-1.7	5.0	0.2	1.0
Cc1cc(N(CCCl)CCCl)ccc1C=NNC(=O)c1ccco1	2.1	-2.7	x	6.0	0.1	x	x
CCOc1ccc(C(O)(c2ccccc2)C(CN2CCCC2)c2ccccc2)cc1 (stereo unspecified)	-2.1	11.9	3748	-3.1	-6.3	9.8	-12.8
Cc1cccc(NC2=NC(C)(C)N=C(N)N2)c1	4.1	7.2	2612	4.6	-3.3	43.4	40.3
Cc1cccc(NC(=O)c2cccc(NC(=O)Cc3cccs3)c2)c1	2.1	-0.9	3624	7.0	-3.9	5.6	-11.0
COc1cc(C(=O)COC(=O)C2CCCCC2)cc(OC)c1OC	3.0	4.0	3862	15.8	5.2	x	-10.3
Cc1nn(Cc2ccccc2)c(C)c1CNC(=O)c1ccc(F)c(S(=O)(=O)N2CCOCC2)c1	-2.7	-4.3	6611	-10.9	9.3	x	11.4
CN(C[C@H](Cc1ccccc1)N(C[C@H](CC1CCCCC1)N(CCc1ccccc1)N=O)N=O)N=O	x	x	3853	x	x	-8.4	-7.2
CSCCC(NC(=O)c1ccccc1C)C(=O)O (stereo unspecified)	7.0	1.9	2194	10.3	8.5	-1.5	-15.7
COc1ccccc1/C=C1\SC(=O)N(CCC(=O)NNC(=O)c2ccccc2Cl)C1=O	0.2	6.2	4707	x	x	-5.3	-42.5
Cc1cc(=O)oc2cc(OCC(=O)OCC(=O)N3CCC(C)CC3)ccc12	1.8	4.9	3417	9.6	5.9	2.1	-10.0
C#CCOCCOCCOCCNc1nc(N2CCOCC2)nc(N2CCN(C(=O)CCCCCCCCCCNC(=O)C(CO)n3cc(CCCSC)nn3)CC2)n1 (stereo unspecified)	5.6	-14.9	x	-3.1	11.6	x	x
O=C(N/N=C/c1c[nH]c2ccccc12)c1cc(Br)ccc1O	x	x	3621	x	x	5.2	-12.5
Cc1nn(C)c(C)c1C(C)NC(=O)c1cc(COc2cncc(Cl)c2)on1 (stereo unspecified)	-0.9	5.8	5316	4.1	4.3	-0.9	-8.9
CC(C)(C)OC(=O)N1Cc2ccccc2C[C@H]1C(=O)NCC(=O)Nc1ccc2c(c1)OCCO2	3.4	3.6	5517	5.5	4.9	6.1	35.4
CCCCNc1c(-c2ccc(OC)c(SC3CCCCC3)c2)nc2cnccn12	-11.0	-38.1	5683	-1.1	2.7	-1.5	-6.5
Oc1c(N=NC(=S)Nc2ccccc2F)c2ccccc2n1Cc1ccccc1	-3.2	5.6	4297	1.2	11.6	1.6	-11.3
COc1ccccc1/C=C/C(=O)NC(=S)NCC1CCCO1 (stereo unspecified)	x	x	4591	x	x	1.2	-32.7
CC(=O)c1c(C)[nH]c(C(=O)NCc2ccccc2)c1C	3.7	4.7	3221	12.0	9.9	0.4	-17.4
C=Cn1cc[n+](CC(=O)c2cc(C(C)(C)C)c(O)c(C(C)(C)C)c2)c1	3.8	12.2	3201	10.9	10.4	-13.1	-16.4
O=C1C(Cl)=C(N2CCCCCC2)C(=O)N1c1ccccc1	4.8	-4.5	4413	2.5	3.2	-6.8	-12.7
Cc1ccc(C)c(OCc2cc(C(=O)N3CC[C@@H]4CCCC[C@H]4C3)no2)c1	-0.4	5.3	5960	3.3	-1.6	-5.3	-40.2
CC1=C(C(=O)OC2CCCC2)C(c2coc3ccccc3c2=O)C2=C(CC(C)(C)CC2=O)N1 (stereo unspecified)	1.7	6.7	5103	6.8	15.0	4.3	x
O=C(CSc1ccsc1[N+](=O)[O-])Nc1cc(F)ccc1F	4.4	-9.8	2034	-1.3	-6.4	-1.5	-18.3
Cc1n[nH]c(C)c1CCCCOc1ccc([N+](=O)[O-])cc1	7.6	-0.5	3460	12.2	10.9	-3.0	-19.7
Cc1occc1-c1nnc(SCC(=O)N2CCN(c3ccccc3F)CC2)n1C	0.0	-0.8	x	-15.8	-1.6	-4.5	x
CC(C)c1ccc(OCC(=O)Nc2ccc(OC(F)(F)F)cc2)cc1	-6.1	-15.9	2465	-3.5	1.4	-9.2	-76.4
CCCC(=O)NC(c1ccccc1Cl)c1ccc2cccnc2c1O (stereo unspecified)	x	x	3966	x	x	43.7	20.2
CCc1nnc(NS(=O)(=O)c2ccc(NC(=S)NC(=O)c3cccs3)cc2)s1	13.9	39.2	3629	8.5	-4.9	5.0	-11.4
CNS(=O)(=O)c1cc(O)c2c(S(=O)(=O)NC)cccc2c1	6.0	2.5	3977	12.4	8.0	4.4	-19.4
COc1ccc(NC(=O)CNC(=O)C2CCCCC2)cc1	-0.9	0.4	6492	11.0	-1.9	13.4	-18.1
Nc1ccc(C(=O)Nc2ccc(NC(=O)c3ccco3)c(O)c2)cc1	1.3	-5.1	3930	5.6	2.1	1.0	-12.5
CC1(C)CC(n2c(NCCO)nc3c(c2=O)C2(CCCC2)Cc2ccccc2-3)CCO1 (stereo unspecified)	-5.9	23.7	7618	17.8	3.8	4.6	4.8
Cc1cc(C(=O)COc2cc(F)ccc2[N+](=O)[O-])c(C)n1C1CC1	-6.9	6.0	4993	6.8	-2.6	2.2	-14.0
COc1ccccc1NC(=O)c1[nH]c(C)c(C(C)=O)c1C	9.2	7.2	2437	x	x	-3.5	-17.0
Cc1cccc(-n2cc[nH]c2=S)c1	3.4	-3.9	2394	4.9	3.1	-0.3	-33.4
Cc1cc2c(cc1C)-c1c(ssc1=Nc1ccc(S(N)(=O)=O)cc1)C(C)(C)N2	3.6	1.7	4692	0.7	6.3	-6.1	-25.6
Cc1cc(C)n(CC(=O)Nc2ccc(N3CCOCC3)c(Cl)c2)c(=O)c1C#N	-5.7	4.9	4024	4.4	1.1	-3.7	-2.9
Cc1cc(C)n(C(=O)CCC(=O)Nc2ccc(C)c(C)c2)n1	-2.3	-8.2	4467	1.9	4.0	8.6	2.5
CCCc1nnc(SCC(=O)Nc2nccs2)o1	5.0	11.9	2716	-3.3	-4.8	-4.5	-31.1
COc1cc(C=NOCC(=O)NC2CCS(=O)(=O)C2)ccc1OC(F)F (stereo unspecified)	9.6	2.4	x	8.8	19.1	x	x
CC(C)NS(=O)(=O)c1cccc2nsnc12	-0.2	-3.4	4199	x	x	1.2	-12.1
Cc1[nH]c2ccccc2c1C(c1ccncc1)N1CCN(c2ccccc2F)CC1 (stereo unspecified)	5.6	8.2	2502	10.4	6.4	-0.5	-12.6
Cc1nc(-c2ccc(Br)cc2)ccc1C(=O)O	x	x	2411	x	x	-12.8	-14.9
CN(C(=O)COC(=O)c1ccc(Cl)c(S(=O)(=O)N2CCCCC2)c1)C1(C#N)CCCCC1	-4.6	-3.5	3513	-5.0	0.6	x	-14.5
COC(=O)c1cc(Br)ccc1NC(=O)Nc1ccc(C)cc1	3.6	3.2	4556	x	x	2.0	-16.1
CN1CCN(c2nc3c(c(=O)n(C)c(=O)n3C)n2Cc2ccc(Cl)cc2)CC1	3.9	4.4	3851	-1.5	3.0	-3.1	-15.2
CCOC(=O)C1=C(Nc2ccccc2)CC(C)(O)C(C(=O)OCC)C1c1ccc(Br)cc1 (stereo unspecified)	-8.3	4.9	9396	-4.1	4.2	-3.0	3.1
(further entries)
SMILES	RN4220 kill	Sa ugtP lethal	Autofluor counter	Mtb hypoxia rep	Mtb hypoxia rep growth	BJeLR viability	PrP UTR inh
CC1(C)Nc2ccccc2N(Cc2ccc([N+](=O)[O-])cc2)C1=O	3.7	3.1	1937	-4.9	-3.0	13.6	-22.0
Cc1csc(NC(=O)c2ccc[nH]c2=O)n1	3.2	0.6	3074	8.1	-3.5	1.1	-36.2
Cc1cc(CNC(=O)C(C)C2C[C@@]2(C)C(NC(=O)OCc2ccccc2)c2ccccc2)nn1C (stereo partly specified)	4.8	8.7	x	-0.3	3.5	x	x
COc1ccc(S(=O)(=O)Nc2ccc3c(c2)n(C)c(=O)n3C)cc1OC	0.6	-2.4	2763	-8.7	-10.8	-1.4	-14.7
O=C(CCN1CCCCC1)N=Nc1c(O)[nH]c2ccccc12	2.2	2.2	2098	4.7	10.5	0.6	-14.7
Nn1cc(-c2ccccc2)nc1SCC(=O)N1CCN(S(=O)(=O)c2ccc(Cl)cc2)CC1	3.1	-7.5	3678	12.5	5.5	-3.7	-12.4
O=c1c(-c2cc3ccccc3o2)[n+]([O-])c2ccccc2n1OCc1ccccn1	20.1	-9.9	9112	2.6	8.6	-5.2	-54.4
CC1CCCCN1S(=O)(=O)c1ccc(C(=O)Nc2nnc(-c3cccs3)o2)cc1 (stereo unspecified)	80.2	76.5	3466	x	x	12.3	5.0

A draw from above in order of formula weight, smallest number first:
SMILES	RN4220 kill	Sa ugtP lethal	Autofluor counter	Mtb hypoxia rep	Mtb hypoxia rep growth	BJeLR viability	PrP UTR inh
Cc1csc(NC(=O)c2ccc[nH]c2=O)n1	3.2	0.6	3074	8.1	-3.5	1.1	-36.2
O=C(CCN1CCCCC1)N=Nc1c(O)[nH]c2ccccc12	2.2	2.2	2098	4.7	10.5	0.6	-14.7
CC1(C)Nc2ccccc2N(Cc2ccc([N+](=O)[O-])cc2)C1=O	3.7	3.1	1937	-4.9	-3.0	13.6	-22.0
COc1ccc(S(=O)(=O)Nc2ccc3c(c2)n(C)c(=O)n3C)cc1OC	0.6	-2.4	2763	-8.7	-10.8	-1.4	-14.7
CN1CCN(c2nc3c(c(=O)n(C)c(=O)n3C)n2Cc2ccc(Cl)cc2)CC1	3.9	4.4	3851	-1.5	3.0	-3.1	-15.2
Cc1cc(CNC(=O)C(C)C2C[C@@]2(C)C(NC(=O)OCc2ccccc2)c2ccccc2)nn1C (stereo partly specified)	4.8	8.7	x	-0.3	3.5	x	x
CCOC(=O)C1=C(Nc2ccccc2)CC(C)(O)C(C(=O)OCC)C1c1ccc(Br)cc1 (stereo unspecified)	-8.3	4.9	9396	-4.1	4.2	-3.0	3.1
